# Screening results from PubChem.
# AmpC inh no det = inhibitors of E. coli AmpC beta-lactamase without detergent | P00811 | AmpC nitrocefin hydrolysis, absorbance 480 nm, no detergent; potencies from a single point are estimates | Potency, µM (highest dose often 28.7 µM), inactives show at the top dose activity change, negative = inhibition | actives 1.8% (n = 71,000); active = falling curve, for most hits resting on a single point; inconclusive = weak or doubtful change; inactive = flat or rising curve; also: % of control where 0% means no effect; about half of the hits show no inhibition at the top dose; a quarter of the inactives give rising signals
# Target sequence (P00811 whole entry, looked up): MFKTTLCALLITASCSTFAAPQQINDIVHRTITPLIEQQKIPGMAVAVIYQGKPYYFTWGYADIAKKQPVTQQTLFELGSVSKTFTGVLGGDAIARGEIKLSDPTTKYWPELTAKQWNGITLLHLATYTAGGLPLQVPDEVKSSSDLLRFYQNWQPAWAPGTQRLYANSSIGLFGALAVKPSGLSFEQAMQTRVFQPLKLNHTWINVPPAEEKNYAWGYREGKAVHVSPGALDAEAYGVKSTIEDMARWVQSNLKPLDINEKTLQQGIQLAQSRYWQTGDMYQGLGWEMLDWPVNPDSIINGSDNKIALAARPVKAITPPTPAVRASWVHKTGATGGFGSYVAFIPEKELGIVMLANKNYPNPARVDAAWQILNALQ
#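 AmpC in 20 mM phosphate buffer pH 7.0 was preincubated 15 min at room temperature with compounds. Nitrocefin (800 uM stock) was then added and hydrolysis followed at 480 nm every 20 s for 4 min.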
# Active calls of the source: *; u = inconclusive; [ ] = another dose, or the depositor's remark. Potency is read from the fitted curve at half-maximal effect. An excerpt (hit frequency here may not be typical).
Structure	AmpC inh no det
COc1cccc(NC(=O)Nc2cccs2)c1	u
COc1ccc(S(=O)(=O)N2CCc3ccccc32)cc1C(=O)OCc1nnc(-c2ccccc2)o1	37%
O=C(CNC(=O)c1ccccc1)NC1(C(=O)NC2CCCC2)CCCCC1	5%
Cc1onc(-c2ccccc2)c1C(=O)Nc1cc(C(F)(F)F)ccc1N1CCOCC1	77%
Cc1ccc(C)n1-n1c(C)nc2sc3c(c2c1=O)CCCCC3	38%
O=C(Nc1nc(-c2ccc3c(c2)OCO3)cs1)c1ccncc1	6%
COc1ccc(N2CCN(C(CNC(=O)C3CCCCC3)c3cccnc3)CC2)cc1 (centres undefined)	33%
S=c1[nH]nc(COc2ccc(Cl)cc2)o1	u
O=C(Cc1ccc(S(=O)(=O)N2CCCC2)s1)Nc1nc2c(s1)CCCC2	u
Nn1c(SCC(=O)Nc2ccc3c(c2)OCCO3)nnc1-c1ccccn1	1%
COc1ccc(CNC(=O)C2CCCN(S(=O)(=O)c3cnc[nH]3)C2)cc1 (centres undefined)	1%
Cc1ccc(C(c2nnnn2Cc2cccs2)N2CCN(C(=O)c3ccco3)CC2)cc1 (centres undefined)	86%
COC(=O)c1[nH]c2ccc(C)cc2c1NC(=O)CN1CCC(C)CC1	20%
COc1cccc(-n2c(SCC(=O)NC3CCCCC3)nc3n[nH]c(C)c3c2=N)c1	129%
COc1cc(C(=O)NC2=NCCS2)ccc1OCc1c(C)noc1C	37%
CCOC(=O)CCc1c(C)c2ccc(OCC(=O)OC(C)C)cc2oc1=O	58%
CCOC(=O)C1CCN(c2ncnc3c2[nH]c2cccc(OC)c23)CC1	19%
CC(=O)c1ccc(Oc2cc(C)nc(-n3nc(C)cc3C)n2)cc1	44%
Cc1noc(C(=O)Nc2ccccc2C(F)(F)F)c1Cl	6%
COCCNC(=O)c1sc2ncn(CC(=O)N3CCCCC3)c(=O)c2c1C	6%
CN(C)S(=O)(=O)c1ccc(C(=O)Nc2ccnn2C2CCCCC2)cc1	18%
CCOC(=O)C1CCCN(C(=O)COC(=O)C2=COCCO2)C1 (centres undefined)	1%
CC(NC(=O)OC1CCCCC1)N1C(=O)C2C3C=CC(C3)C2C1=O (centres undefined)	20%
COc1ccc(S(=O)(=O)N2CCCN(Cc3cccc(F)c3)CC2)cc1	20%
CCNc1ncc2ncc(=O)n(CCc3ccccc3)c2n1	-3%
N#Cc1cccc(-c2ccc3ncnc(NCc4cccnc4)c3c2)c1	20%
COC(=O)[C@@]1(Cc2ccc(OC)cc2)[C@H]2c3cc(C(=O)N4CCCC4)n(Cc4nc5ccccc5[nH]4)c3C[C@H]2CN1C(=O)c1ccccc1	129%
CC(NC(=O)C(NC(=O)C1CCCN1C(=O)OC(C)(C)C)C(C)C)C(N)=O (centres undefined)	-3%
C=CCn1c(COc2cccc3ccc(C)nc23)nnc1SCC(=O)OC	50%
COc1ccc(OCCN2C(=O)NC(C)(c3ccc(C)cc3)C2=O)cc1 (centres undefined)	27%
CN(C)CCCNCCCNC(=O)/C(=N\O)c1ccccn1	4%
Cc1onc(-c2c(Cl)cccc2Cl)c1C(=O)NC(C)(C)CO	11%
Cc1cc(C)c(-c2cc(NC(=O)CSc3nncn3C)n(-c3ccccc3)n2)cc1C	136%
COc1cc(OC)cc(-c2nc(-c3ccccc3)no2)c1	-4%
Cc1[nH]nc(-c2ccc(O)cc2O)c1-c1ccc(Cl)cc1	0%
COc1ccccc1-c1ccc2ncnc(N3CCOCC3)c2c1	133%
CSc1nnc2c3ccccc3n(Cc3ccccc3)c2n1	18%
Cc1ccc(C)n1CCN1CCN(CC(=O)Nc2ccc(S(N)(=O)=O)cc2)CC1	35%
CCCC(=O)Nc1ccc(Cl)c(NC(=O)c2cccnc2)c1	-4%
Cc1cc(NC(=O)COC(=O)c2ccc(F)c(S(=O)(=O)N3CCOCC3)c2)no1	6%
OC(COc1ccccc1)CN1C2=NCCCN2c2ccccc21 (centres undefined)	11%
Cc1cccc(OCCCC(=O)Nc2ccc(N3CCOCC3)cc2)c1	39%
Cc1cc(N2CC(=O)N(CCc3ccccc3)C(=O)C2)n2ncnc2n1	28%
CN(Cc1ccco1)c1ccnc(-c2cccc(C#N)c2)n1	65%
CSc1ccc(C2C(C#N)=C(N)Oc3cc4c(cc32)OCO4)cc1 (centres undefined)	-18%
Cc1ccc(-n2nnc3ccccc3c2=O)cc1C	18%
O=C(Nc1ccccc1)Nc1ccccn1	-12%
CC(C)c1ccc(N(CC(=O)O)S(=O)(=O)c2cccnc2)cc1	2%
COC(=O)c1ccccc1NC(=O)C1CC(=O)N(c2ccccc2)C1 (centres undefined)	20%
C=CCc1ccccc1OCCn1ccnc1	5%

# 6 structures out of the list, ordered by formula weight, descending:
Structure	AmpC inh no det
Cc1cccc(OCCCC(=O)Nc2ccc(N3CCOCC3)cc2)c1	39%
COC(=O)c1ccccc1NC(=O)C1CC(=O)N(c2ccccc2)C1 (centres undefined)	20%
N#Cc1cccc(-c2ccc3ncnc(NCc4cccnc4)c3c2)c1	20%
CC(C)c1ccc(N(CC(=O)O)S(=O)(=O)c2cccnc2)cc1	2%
OC(COc1ccccc1)CN1C2=NCCCN2c2ccccc21 (centres undefined)	11%
CCCC(=O)Nc1ccc(Cl)c(NC(=O)c2cccnc2)c1	-4%

# Next section
Structure,AmpC inh no det
Cn1c(=O)c2c(nc(NCc3ccc4c(c3)OCO4)n2C)n(C)c1=O,42%
CCCCNC(=O)c1nc2ncc(Br)cn2n1,2%
O=C(NCCCN1CCCCC1)C1CCC(=O)N1CCc1ccccc1 (centres undefined),-9%
COc1ccc(Oc2ncc3nc(-c4ccc(F)cc4)c(=O)n(C[C@H]4CCCO4)c3n2)cc1,51%
CC(=O)c1ccc(NC(=O)C2CCCN2S(=O)(=O)c2cccc3cccnc23)cc1 (centres undefined),32%
CC(C)Cn1c(=O)c(C(=O)Nc2cnccn2)c(O)c2ccccc21,0%
CCC(Sc1nc(=O)cc(N)n1CCc1ccccc1)C(=O)Nc1ccccc1C#N (centres undefined),51%
COc1ccc(OC)c(S(=O)(=O)Nc2ccc(O)c3ccccc23)c1,u
O=C(CSc1nc2ccccc2o1)Nc1ccccc1,-7%
CC1CCN(S(=O)(=O)c2cccc(C(=O)Nc3ccccn3)c2)CC1,12%
CC(c1ccccc1)C1C(C#N)=C(N)SC(N)=C1C#N (centres undefined),-9%
Cc1cccc(N2CC(C(=O)O)CC2=O)c1 (centres undefined),2%
CC(C)(C)Nc1cccccc1=O,-8%
CCN(C#N)c1nc(NC(C)C)nc(NC(C)C)n1,10%
COc1ccccc1N1CCN(CCC(=O)Nc2ccc3c(c2)OCO3)CC1,41%
Cn1c(SCc2ccccc2)nnc1-c1cccs1,-1%
CCc1ccc(OC(=O)c2ccn(CC)n2)cc1,26%
O=C(C1CCC(CNS(=O)(=O)c2cccc3cccnc23)CC1)N1CCCC1 (centres undefined),12%
CCOC(=O)C(CC)(CCC(=O)O)c1csc(N)n1 (centres undefined),-8%
CC(=O)Nc1ccc(S(=O)(=O)NCC2CCC(C(=O)NCCC(C)C)CC2)cc1 (centres undefined),0%
COC1=Cc2c(ccc3ccc(=O)oc23)OC1(C)C,14%
CCOc1ccc(N=C2SC(C(=O)O)CC(=O)N2C)cc1 (centres undefined),3%
CC(=O)c1coc2ccc(OCCN3CCCCC3)cc12,-10%
COc1ccc(OCCNC(=O)c2ccccc2OCC(=O)N2CCCCC2)cc1,42%
CCC(=NCCc1ccccc1)C1=C(O)CCC1=O,12%
COc1ccc(N2CCN(C(=O)CSc3nc4cc(OC)c(OC)cc4cc3C#N)CC2)cc1,90%
O=C(Nc1ccccn1)C1CCN(S(=O)(=O)c2cccs2)CC1,-2%
O=C1CCC(=O)N1OCCOc1ccc2c(c1)CCC2,5%
COc1cc(NC(=O)c2cc(-n3cnnc3)ccc2Cl)cc(OC)c1,15%
CCOC(=O)CCc1c(C)c2c(C)nn(-c3ccccc3)c2[nH]c1=O,19%
CCCOc1ccc(C2C(C(=O)OC)=CN(CCOC)C=C2C(=O)OC)cc1,114%
S=c1[nH]nc(-c2ccc3ccccc3n2)o1,-4%
Cc1cc(C#N)c(C)n1-c1cc(C(F)(F)F)ccc1N1CCOCC1,62%
COc1ccccc1N1CCN(C(=O)c2ccc3c(=O)n(Cc4ccco4)c(=S)[nH]c3c2)CC1,77%
CCOc1ccc(-c2nc(CSCC(=O)N3CCN(c4cccc(OC)c4)CC3)c(C)o2)cc1,128%
NCCC1([N+](=O)[O-])CCNCC1,-5%[5.75 µM]
O=C(O)C[C@H](Cc1ccccc1)C(=O)O,14%[5.75 µM]
OCCN(CO)CO,2%[5.75 µM]
CCCCOc1ccc(NC(=O)CSCC(=O)OCC)cc1,20%
CCOC(=O)c1ccc2nc3c(cc2c1)CCS3,14%
O=C(CS(=O)CC(=O)N(CC(=O)NC1CCCC1)C1CCCCC1)Nc1ccc(F)cc1 (centres undefined),80%
O=C(NCc1ccc2c(c1)OCO2)c1ccc2snnc2c1,-18%
C=CCc1c(C)[nH]c(=S)c(C#N)c1C,-9%
CC(C)n1c(Nn2cnnc2)nc2ccccc21,0%
CCOc1ccc(NC(=O)CSc2nnc(C3CC3)n2N)cc1,-6%
Cn1c2ccccc2c2ncn(CCC3=CCCCC3)c(=O)c21,31%
COc1ccc(-c2nnc(N(C)C(=O)c3cccnc3)s2)cc1,60%
C=CCSc1n[nH]c(-c2ccc(OC)cc2)n1,-3%

# 4 entries from above, with each value named:
SMILES: COc1cccc(NC(=O)Nc2cccs2)c1
  AmpC inh no det = u

SMILES: COc1ccc(S(=O)(=O)N2CCc3ccccc32)cc1C(=O)OCc1nnc(-c2ccccc2)o1
  AmpC inh no det = 37%

SMILES: O=C(CNC(=O)c1ccccc1)NC1(C(=O)NC2CCCC2)CCCCC1
  AmpC inh no det = 5%

SMILES: Cc1onc(-c2ccccc2)c1C(=O)Nc1cc(C(F)(F)F)ccc1N1CCOCC1
  AmpC inh no det = 77%

# The listing continues.
Structure,AmpC inh no det
CCOC(=O)c1nnn(-c2nc(OC)nc(N(C)C)n2)c1-c1ccccc1,37%
CCN(C(=O)COc1ccccc1)c1nnc(-c2cccnc2)s1,27%
Nn1c(-c2cccc(Br)c2)n[nH]c1=S,-8%
N#CCCCC[N+]12CN3CN(CN(C3)C1)C2,-4%[5.75 µM]
CC(C)CC(OC(=O)c1cccs1)C(=O)NCc1ccco1 (centres undefined),18%
c1ccc(NN(Cc2cnccn2)c2ccccc2)cc1,12%[5.75 µM]
O=C1CCCN1CN(C(=O)c1ccc2c(c1)OCO2)c1cccc(Cl)c1,-3%
COC(=O)C(Cc1ccccc1)NC(=O)CSc1nc(N)cc(=O)[nH]1 (centres undefined),-10%
Cc1ncc(CO)c2cc(C(N)=O)c(=Nc3ccccc3)oc12,17%
Cc1ccc(C)c(Cn2c(CO)nc3ccccc32)c1,27%
Cc1cc(C)cc(N2CC(C(=O)O)CC2=O)c1 (centres undefined),4%
Cn1nnnc1SCC(=O)Nc1ccccc1Cc1ccccc1,9%
COc1ccc(Cn2nnnc2CN2CCOCC2)cc1,0%
N#C/C(=C(/O)COC(=O)CCCNC(=O)c1ccc(Cl)cc1)c1nc2ccccc2[nH]1,-23%
COc1ccc(OC)c(N/C=C2/CCCCC2=O)c1,41%
Cc1nnc(SCCn2c(N(C)Cc3ccccc3)nc3c2c(=O)n(C)c(=O)n3C)s1,83%
Cc1ccc(/C(=C/CN2CCCC2)c2ccccn2)cc1,11%
O=C(Nc1ccccc1)C1=C(O)CC(c2ccco2)CC1=Nc1ccccc1 (centres undefined),7.9µM*
Cc1ccc(S(=O)(=O)N2CCN(C(=O)N(C)C)CC2)cc1C,21%
O=C(COc1ccccc1Cl)N(Cc1ccco1)C1CCS(=O)(=O)C1 (centres undefined),13%
COC(=O)C(NC=O)C(O)(Cc1ccccc1)C(F)(F)F (centres undefined),-1%
COC(=O)c1ccc(OC(=O)C2CC(=O)N(c3cccc(C)c3)C2)cc1 (centres undefined),39%
COC(=O)C1(C)NC(c2ccco2)C2C(=O)N(c3ccc(C)cc3)C(=O)C21 (centres undefined),6%
O=C(O)[C@H](Cc1cnc[nH]1)N1C(=O)c2ccccc2C1=O,1%[5.75 µM]
Cc1cc(C)nc(Nc2ccc(N3CCOCC3)cc2)n1,-2%
CC1CCC(C(=O)O)([C@H](Br)C(=O)O)CC1 (some centres undefined),-3%[5.75 µM]
Cc1sc2nc(SCC(=O)NCCO)n(C)c(=O)c2c1C,6%
CC1CCN(C(=O)C2CCN(S(=O)(=O)c3cnc[nH]3)CC2)CC1,-10%
O=C(CC1Oc2ccccc2NC1=O)NC1CC1 (centres undefined),1%
CC1(C)NC(C)(C)c2nonc2/C1=N\O,-5%
Nc1nonc1-n1nnc(C(=O)c2ccccc2)c1-c1ccccc1,-15%
CCCCSCCCNC(=O)CS(=O)Cc1nc(-c2cccc(C)c2)oc1C (centres undefined),107%
CC(C)N(Cc1nc(-c2ccccc2)no1)C(=O)Cc1ccccc1,4µM*[single pt active]
Cc1ccccc1-n1c(Cn2c(=O)sc3ccccc32)nnc1SCC(=O)NCC1CCCO1 (centres undefined),113%
CCOC(=O)c1c(NC(=O)CSc2nc3c(c(=O)n(C)c(=O)n3C)n2C(C)C)sc(C)c1C,77%
COc1ccc(Br)cc1-c1noc(-c2ccncc2)n1,18%
O=c1cc(-c2ccc(O)c(O)c2)oc2cccc(O)c12,-12%
COc1ccc2c(c1)NC1(O)c3ccccc3C(=O)C21O (centres undefined),4%
C[C@H](NC(=O)OC(C)(C)C)c1nnc(SCC(=O)Nc2ccc(Br)cc2)o1,7%
